Screening data (PubChem BioAssay)
Vaccinia stage: blocks a specific stage of Vaccinia orthopoxvirus infection, primary screen, cell-based, single point | Vaccinia-infected cells, mCherry/Venus stage reporter fluorescence; active compounds read low; some inactives read as strong as hits | activity change (mCherry), % (concentration not given with the values) | 89,000 tested, 0.01% active | AID 1053133, 2014;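 active = mCherry past -33% and 40 or more points under the early reporter, replicates agreeing; inconclusive = past -33% without that gap or agreement; tested in A549 cells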;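 also: scaled between vehicle wells and reference inhibitor wells; 23 nL library stock went into each well; one replicate is shown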
Vaccinia stage Venus: second read-out of Vaccinia stage, no call of its own (marks repeat the call); activity change (Venus), %; measured here: Venus reporter, other viral stage;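 negative = less Venus signal; first of two replicates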
Starred values were filed as active, the others as inactive; ? = inconclusive; / = not tested or not shown; & = joins results of further samples. The list is partial; count on the stated rates, not on these rows.

SMILES	Vaccinia stage	Vaccinia stage Venus
Cc1ccc(S(=O)(=O)N[C@@H]2CC[C@@H](CCn3cc(-c4cccc(F)c4)nn3)O[C@@H]2CO)cc1	5	-2
Cc1noc(C)c1NC(=O)N(C)C[C@@H]1Oc2ccc(NC(=O)Nc3ccc(C(F)(F)F)cc3)cc2C(=O)N([C@H](C)CO)C[C@@H]1C	6	14
Cc1noc(C)c1S(=O)(=O)Nc1ccc2c(c1)C(=O)N([C@H](C)CO)C[C@@H](C)[C@H](CN(C)Cc1ccc3c(c1)OCO3)O2	4	-9
C[C@H](CO)N1C[C@H](C)[C@@H](CN(C)S(=O)(=O)c2cn(C)cn2)OCCCC[C@H](C)Oc2ccc(NC(=O)Nc3cccc4ccccc34)cc2C1=O	42	23
COC(=O)C[C@H]1CC[C@H]2[C@H](COc3ccc(NC(=O)Nc4cc(C)cc(C)c4)cc3C(=O)N2C)O1	-24	-17
O=C(Nc1ccc(Cl)cc1)N1C[C@H]2[C@@H](c3ccccc31)[C@H](CO)N2CC1CCCCC1	?	/
CCC(=O)N1[C@H](CO)[C@@H]2c3ccccc3N(S(=O)(=O)c3ccccc3)C[C@@H]21	1	6
CO[C@H]1CN(C)C(=O)c2cc(NC(=O)c3ccccc3F)ccc2OC[C@@H](C)N(CC2CCOCC2)C[C@@H]1C	-10	-1
COc1ccc(S(=O)(=O)N(C)C[C@@H]2Oc3c(NC(=O)c4ccncc4)cccc3C(=O)N([C@@H](C)CO)C[C@H]2C)cc1	12	15
COc1ccc2c3c([nH]c2c1)[C@H](CO)N(C(=O)C1CCCCC1)CC31CCN(C(=O)NC(C)C)CC1	8	0
O=C([C@@H]1[C@@H](CO)[C@@H]2Cn3c(ccc(C4=CCCCC4)c3=O)[C@@H]2N1Cc1nccs1)N1CCCCC1	4	7
C[C@H]1CN([C@@H](C)CO)C(=O)Cc2cc(NC(=O)Nc3ccc4c(c3)OCO4)ccc2O[C@H]1CN(C)Cc1ccc2c(c1)OCO2	-21	-12
CC(=O)N(C)C[C@@H]1Oc2cc(C#Cc3ccncc3)ccc2S(=O)(=O)N([C@@H](C)CO)C[C@@H]1C	6	9
CCCC#Cc1cnc2c(c1)C(=O)N([C@@H](C)CO)C[C@@H](C)[C@H](CN(C)C(=O)Nc1ccccc1F)O2	-16	-15
C[C@@H]1CN([C@@H](C)CO)C(=O)c2cc(-c3ccc(F)cc3)cnc2O[C@H]1CN(C)C(=O)c1cccnc1	19	9
C[C@@H]1CN([C@@H](C)CO)C(=O)Cc2cc(NC(=O)CCC(F)(F)F)ccc2O[C@@H]1CN(C)CC1CC1	0	-3
CO[C@@H]1CN(C)C(=O)c2cc(NC(=O)NC3CCCC3)ccc2OC[C@H](C)NC[C@H]1C	0	9
COC(=O)c1cn(CC(=O)N2CCN(c3ccccc3)CC2)nn1	21	9
Cc1ccc(S(=O)(=O)N(C)C[C@@H]2Oc3ccc(NC(=O)Nc4c(C)noc4C)cc3C(=O)N([C@@H](C)CO)C[C@@H]2C)cc1	16	14
C[C@H]1CN([C@@H](C)CO)C(=O)c2cc(C#CC3CCCCC3)cnc2O[C@H]1CN(C)C(=O)Cc1ccccn1	-18	-16
O=C(C[C@@H]1C=C[C@@H](NC(=O)c2cnccn2)[C@H](CO)O1)NCc1ccccc1F	7	7
C[C@@H]1CN([C@@H](C)CO)C(=O)c2cc(NS(=O)(=O)c3cccs3)ccc2O[C@H]1CN(C)C(=O)Nc1ccc2c(c1)OCO2	17	9
CC=Cc1ccc2n(c1=O)C[C@H]1[C@H](CO)[C@@H](C(=O)N3CCOCC3)N(CC3CC3)[C@@H]21 (mixture of isomers)	28	23
COc1ccc(NC(=O)Nc2ccc3c(c2)C(=O)N([C@H](C)CO)C[C@@H](C)[C@@H](CN(C)C(=O)Nc2ccccc2)O3)cc1	8	8
C[C@@H]1CN([C@H](C)CO)C(=O)c2cc(/C=C/c3ccccc3)cnc2O[C@H]1CN(C)S(=O)(=O)c1ccccc1F	-23	-15
COC(=O)C[C@H]1C[C@@H]2c3cc(NS(C)(=O)=O)ccc3O[C@@H]2[C@@H](CO)O1	9	7
CN(C)C(=O)c1ccc(-c2ccc([C@@H]3[C@@H](CO)N4CCCCN(CC5CC5)C[C@@H]34)cc2)cc1	12	12
COc1ccc2c3c([nH]c2c1)[C@@H](CO)N(C(=O)CN1CCOCC1)CC31CCN(CC2CCCC2)CC1	-1	-7
CN(C)C(=O)c1ccc(-c2ccc([C@@H]3[C@@H](C#N)N(C(=O)Cc4ccccn4)[C@H]3CO)cc2)cc1	-4	-8
CN(C)CC#Cc1ccc([C@@H]2[C@@H](CO)N3CCCCN(C(=O)Nc4ccc(F)cc4)C[C@H]23)cc1	5	-6
COCC(=O)N(C)C[C@@H]1Oc2cc(-c3ccc(C)cc3)ccc2S(=O)(=O)N([C@H](C)CO)C[C@H]1C	-6	-4
C[C@@H]1CN([C@@H](C)CO)C(=O)Cc2cc(NC(=O)CCCCCC(=O)Nc3ccccc3N)ccc2O[C@H]1CN(C)Cc1ccc2c(c1)OCO2	0	-10
O=C(Cc1ccccc1)N1CC(=O)N2[C@@H](CO)[C@H](c3ccc(C#CCc4ccccc4)cc3)[C@@H]2C1	15	14
CCCN(C)C[C@H]1Oc2cc(C#CCOC)ccc2S(=O)(=O)N([C@H](C)CO)C[C@H]1C	16	13
CO[C@@H]1CN(C)C(=O)c2ccc(NC(C)=O)cc2OC[C@H](C)N(CC2CC2)C[C@@H]1C	-1	2
CO[C@@H]1CN(C)C(=O)c2ccc(NC(=O)c3ccc4c(c3)OCO4)cc2OC[C@H](C)NC[C@@H]1C	-8	3
CCCNC(=O)N1[C@@H]2c3ccc(-c4cccc(OC)c4)c(=O)n3C[C@H]1[C@H](CO)[C@H]2C(=O)NCC	12	11
C[C@@H]1CN([C@@H](C)CO)C(=O)c2cccc(N(C)C)c2O[C@H]1CN(C)Cc1ccc(C(=O)O)cc1	16	15
COc1ccc(S(=O)(=O)N(C)C[C@@H]2Oc3ncc(C#Cc4ccccc4)cc3C(=O)N([C@H](C)CO)C[C@@H]2C)cc1	?	/
C[C@@H]1CN([C@H](C)CO)C(=O)c2cc(NS(=O)(=O)c3ccc(Cl)cc3)ccc2O[C@@H](C)CCCCO[C@H]1CN(C)C(=O)Nc1ccc2c(c1)OCO2	?	/
CCC(=O)N1CCCCN2[C@H](CO)[C@@H](c3ccc(C#Cc4ccccc4F)cc3)[C@@H]2C1	-34	-27
CO[C@@H]1CN(C)C(=O)c2ccc(NS(=O)(=O)c3ccccc3Cl)cc2OC[C@H](C)NC[C@H]1C	5	3
CN1C(=O)c2cc(NC(=O)c3cnccn3)ccc2OC[C@@H]2O[C@H](CC(=O)NC3CCC3)CC[C@H]21	7	-7
COc1cccc(-c2ccc([C@@H]3[C@H]4CN(C(=O)NC(C)C)CC(=O)N4[C@H]3CO)cc2)c1	31	-1
O=C1N(CCS(=O)(=O)c2ccccc2)Cc2ccccc2C[C@@]12COC(c1ccc(OCCCO)cc1)=N2	?	/
COc1cccc(NC(=O)N(C)C[C@H]2Oc3cc(C#Cc4ccncc4)ccc3S(=O)(=O)N([C@H](C)CO)C[C@H]2C)c1	?	/
COc1ccc(CN(C)C[C@@H]2Oc3ccc(NC(=O)C4CC4)cc3CC(=O)N([C@H](C)CO)C[C@H]2C)cc1	-15	-15
CCCNC(=O)N1CC2(CCN(C(=O)c3ccncc3)CC2)c2c([nH]c3cc(OC)ccc23)[C@@H]1CO	13	4
COc1ccc(NC(=O)N(C)C[C@@H]2Oc3ccc(NS(=O)(=O)c4cccs4)cc3C(=O)N([C@H](C)CO)C[C@H]2C)cc1	4	5
C[C@H](CO)N1C[C@H](C)[C@H](CN(C)CC2CC2)Oc2ccc(NS(=O)(=O)c3ccccc3)cc2CC1=O	5	0
COCC(=O)N1CCCCN2[C@@H](CO)[C@@H](c3ccc(C#Cc4ccc(OC)cc4)cc3)[C@@H]2C1	?	/
C[C@H]1CN([C@@H](C)CO)C(=O)c2c(c3ccccc3n2C)-c2ccccc2CO[C@H]1CN(C)C(=O)Nc1ccccc1	-32	-31
CCCNC(=O)N(C)C[C@H]1Oc2cc(C#CC3CC3)ccc2S(=O)(=O)N([C@H](C)CO)C[C@@H]1C	-15	-10
CN1CCN(C(=O)C[C@H]2CC[C@H](NC(=O)c3ccc4c(c3)OCO4)[C@@H](CO)O2)CC1	3	3
O=C1CN(Cc2ccccc2)C[C@H]2[C@@H](c3ccc(-c4ccccc4F)cc3)[C@H](CO)N12	-18	-13
O=C(N[C@@H]1CC[C@H](CCn2cc(-c3ccccc3)nn2)O[C@@H]1CO)c1ccccc1F	5	-3
COC(=O)[C@H]1[C@H](CO)[C@H]2Cn3c(ccc(-c4ccccc4F)c3=O)[C@@H]1N2C(=O)C1CC1	-5	2
C[C@H]1CN([C@@H](C)CO)C(=O)c2cc(NC(=O)Cc3cn(C)c4ccccc34)ccc2O[C@@H]1CN(C)S(=O)(=O)c1cn(C)cn1	24	17
O=C(Nc1ccccc1)C1=C[C@H](c2csc3ccccc23)C[C@H](OCCCCO)O1	41&-16	19&-10
O=C(C[C@@H]1C=C[C@H](NC(=O)c2ccc(F)cc2)[C@@H](CO)O1)NCCc1ccncc1	7	15

The results go on:
SMILES	Vaccinia stage	Vaccinia stage Venus
COc1ccc(NC(=O)N(C)C[C@H]2Oc3ccc(NC(=O)NC(C)C)cc3C(=O)N([C@@H](C)CO)C[C@@H]2C)cc1	11	9
C[C@H]1CN([C@@H](C)CO)C(=O)c2cc(NC(=O)CCCCCC(=O)Nc3ccccc3N)ccc2O[C@@H]1CN(C)S(=O)(=O)c1ccc(Cl)cc1	6	-3
O=C(C[C@@H]1CC[C@@H]2[C@H](COC[C@@H](O)CN2CC2CCOCC2)O1)NCc1ccc(Cl)cc1	11	2
CCCC(=O)Nc1ccc2c(c1)OC[C@@H](C)N(C(=O)c1ccccn1)C[C@@H](C)[C@H](OC)CN(C)C2=O	1	6
CCN1[C@H](C(=O)N2CCCCC2)[C@@H](CO)[C@@H]2Cn3c(ccc(-c4cccc(F)c4)c3=O)[C@@H]21	-4	6
C[C@H]1CN([C@@H](C)CO)C(=O)Cc2cc(NC(=O)NC3CCCCC3)ccc2O[C@H]1CN(C)Cc1ccc2c(c1)OCO2	-9	-10
CN1c2ccc(-c3ccc(F)cc3)cc2[C@H]2[C@H](CCN2C(=O)Cc2cccnc2)[C@H]1CO	-19	-19
C[C@H](CO)N1C[C@H](C)[C@@H](CN(C)C(=O)CCCN(C)C)OCCCC[C@H](C)Oc2ccc(NC(=O)Nc3cccc4ccccc34)cc2C1=O	16	12
COc1ccc(NC(=O)N(C)C[C@H]2OCc3cn(nn3)CCCC(=O)N([C@H](C)CO)C[C@H]2C)cc1	1	-2
C[C@@H]1CN([C@H](C)CO)C(=O)Cc2cc(NS(=O)(=O)c3cn(C)cn3)ccc2O[C@@H]1CN(C)Cc1ccc(-c2ccccc2)cc1	-14	-15
C[C@@H]1CN([C@@H](C)CO)C(=O)c2cc(NC(=O)C3CCCCC3)ccc2O[C@@H](C)CCCCO[C@@H]1CN(C)Cc1ccc(C(=O)O)cc1	24	8
Cc1ccc(S(=O)(=O)N(C)C[C@H]2Oc3ccc(NC(=O)CCCN(C)C)cc3CC(=O)N([C@H](C)CO)C[C@@H]2C)cc1	9	3
CO[C@@H]1CN(C)C(=O)c2ccc(NS(=O)(=O)c3cccc(F)c3)cc2OC[C@@H](C)NC[C@@H]1C	6	4
COc1cccc(-c2cnc3c(c2)C(=O)N([C@H](C)CO)C[C@@H](C)[C@@H](CN(C)C(C)=O)O3)c1	14	12
COc1ccc(NC(=O)N(C)C[C@@H]2Oc3ccc(NS(=O)(=O)c4cn(C)cn4)cc3C(=O)N([C@@H](C)CO)C[C@@H]2C)cc1	5	6
O=C(C[C@H]1C=C[C@@H](NS(=O)(=O)c2ccccc2)[C@H](CO)O1)NCCN1CCCCC1	-6	8
